# From PubChem BioAssay
# HPGD inh: qHTS Assay for Inhibitors of HPGD (15-Hydroxyprostaglandin Dehydrogenase); Potency, µM, for inactives: top-dose activity change, negative = inhibition, most hits filed as inhibitors; 150,000 compounds, 4.3% hits; purified HPGD, NADH fluorescence kinetic, PGE2 substrate; active = well fitted inhibition curve with a large enough effect (not every such curve was filed as active); inconclusive = small, poorly fitted or top-dose-only effect, or another doubt; inactive = no such curve, though single readings can be large or run the other way;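 also: top concentration of the series not given in the record; plate controls included wells without enzyme; inactives centre near -10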
# Target sequence (P15428 whole entry, looked up): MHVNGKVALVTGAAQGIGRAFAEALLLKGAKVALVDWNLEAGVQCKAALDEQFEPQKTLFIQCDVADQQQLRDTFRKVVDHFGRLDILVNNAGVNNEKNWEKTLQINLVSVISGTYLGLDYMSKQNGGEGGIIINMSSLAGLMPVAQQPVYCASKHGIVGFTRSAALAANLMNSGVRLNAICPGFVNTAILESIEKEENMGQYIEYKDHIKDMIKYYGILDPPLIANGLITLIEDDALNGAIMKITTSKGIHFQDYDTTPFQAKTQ
#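 NADH formation kinetics: reaction with 30 uM PGE2 and 1 mM NAD+ (final), 20 nM enzyme, Tris-HCl pH 8 with Tween 20, after 15 min compound preincubation at room temperature. Fluorescence change, last versus first of five reads.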
# An asterisk follows results filed as active; ? = inconclusive; & = joins results of further samples. % is scaled to controls: 0 for no effect and ±100 for the full control effect; potency is read from the fitted curve at half-maximal effect.
SMILES,HPGD inh
Cc1cc(C)nc(-n2nc(C)c(C3(O)C(=O)Nc4ccc(F)cc43)c2N)n1 (stereo not given),0.3%
CC(NC(=O)C1CCN(c2nnc(-n3cccc3)s2)CC1)C12CC3CC(CC(C3)C1)C2 (stereo not given),-8.5%
Cc1nc(CC(=O)Nc2nc(C(C)(C)C)cs2)cs1,?
CC(=O)N1CCn2c3ccc(C)cc3c3cccc1c32,-12.3%
O=C(Nc1ccccc1Oc1ccccc1)C1CC1,0.8%
CCOc1ccccc1N(CC(=O)Nc1ccc(S(=O)(=O)N2CCOCC2)cc1)S(=O)(=O)c1ccccc1,-9.7%
Cc1cccc(C(P(=O)(c2ccccc2)c2ccccc2)P(=O)(c2ccccc2)c2ccccc2)n1,-7.1%
COC1CCCCC1Nc1ccc(C)c(C)c1 (stereo not given),-4.9%
O=C(Nc1ccc(Oc2ccccc2)cc1)c1ccco1,-11.3%
O=C(Nc1cccc(NC(=O)c2ccc(Br)o2)n1)c1ccc(Br)o1,?
CCC1CCCCN1Cc1nc2c(c(=O)n(C)c(=O)n2C)n1CCC(C)C (stereo not given),-3.7%
Cc1ccc2cc(CN(CC3CCCO3)C(=S)Nc3ccccc3)c(=O)[nH]c2c1C (stereo not given),-4.0%
Cc1ccc(C)c(Nc2ccc(C(=O)NCCc3ccccc3)cn2)c1,-26.8%
Cc1cc(C(=O)NCCCN2CCCC2=O)no1,-1.6%
CCOc1cc(C2CC(=O)c3c(ccc4ccccc34)N2)ccc1O (stereo not given),-17.4%
Cc1ccc(C)c(N2CCN(C(=O)C(Cc3ccccc3)n3cccc3)CC2)c1 (stereo not given),-4.7%
CCOc1ccccc1NC(=S)NNS(=O)(=O)c1c(C)cc(C)cc1C,-15.6%
CCCCOC(=O)c1ccc(NC(=O)C2CCCO2)cc1 (stereo not given),-29.6%
O=C1CCC(=O)N1OCCCOc1ccc(Br)cc1Cl,17.8µM*
CC(=O)OCCNC(=O)c1cccnc1,-8.5%&-10.3%
CC(=O)C1=C(O)C(=O)N(c2cc(C(C)(C)C)on2)C1c1ccc(Br)cc1 (stereo not given),-19.4%
CCOc1ccc(NC(=S)Nc2ccc(OCc3ccccc3)cc2)cc1,-7.8%
CC1(C)N=C(N)NC(Nc2cccc(Br)c2)=N1,3.7%
Cc1occc1C(=O)N/N=C/c1cnn(C)c1C,-4.0%
O=C(NNC(=O)c1ccc(F)cc1)C(=O)N1CCCCC1,-7.3%

# Later entries.
SMILES,HPGD inh
CC(=O)Nc1ccc(NC(=O)N2CCCCC2)cc1,-4.7%
O=C(Nc1ccncc1)c1cn(-c2ccccc2)nc1-c1cccs1,?
O=C1c2oc3ccc(F)cc3c(=O)c2C(c2ccncc2)N1CCN1CCOCC1 (stereo not given),-13.3%
CC1=C(C(=O)O)N2C(=O)C(NC(=O)c3nn(C)cc3Cl)C2SC1 (stereo not given),-11.1%
CCc1cc(=O)oc2c(CN3CCCC3)c(O)c(Cl)cc12,?
Cc1sc2nc(SCC(=O)NCc3ccco3)n(-c3ccccc3)c(=O)c2c1C,-29.5%
O=C(N/N=C\c1cn[nH]c1-c1ccccc1)c1cccnc1,-7.1%
CCOC(=O)CSc1nnc(CNc2ccc(Cl)cc2)n1Cc1ccccc1,-6.4%
CC(=O)N1c2ccccc2C(=O)OC1c1cccnc1 (stereo not given),?
Cc1ccccc1-n1ncc2c([N+](=O)[O-])cc([N+](=O)[O-])cc21,-10.9%
Cc1c(C(=O)NCCCN2CCOCC2)sc2ncnc(N3CCN(c4ccccc4)CC3)c12,-9.7%
CCc1ccccc1NC(=O)N[C@@H](C)C(=O)OC,-4.3%
Cc1ccc(Nc2nc(C)cc(C)c2C(N)=O)cc1,-1.2%
Cc1oc2cc(O)cc(O)c2c(=O)c1-c1ccc2c(c1)OCCCO2,-29.1%
COc1nc(N(C#N)CC(N)=O)nc(N2CCCC2)n1,-3.6%
CCOC(=O)c1ccc(NC(=S)N2CCC(O)CC2)cc1,-18.6%
CCOC(=O)c1[nH]c(C)c(C(=O)Nc2ccc(C)c(C)c2)c1C,-7.4%
Cc1cc(C)c2c(CC(=O)NCc3ccco3)coc2c1,?
O=C(c1ccccc1)c1cncc(Br)c1,-5.4%
Cc1ccccc1Nc1oc(-c2ccccc2)nc1-c1cccs1,-12.4%
O=C1CCCCC1C(Nc1ccc(Cl)cc1)c1ccccc1 (stereo not given),?
CCCCN(C)C(=O)Cc1c(OC)ccc2cc(Br)ccc12,-15.2%
FC(F)(F)c1ccc(C2[C@H]3CN(CC4CCCCC4)[C@H](c4ccccc4)C34CC2(c2cccnc2)C4)cc1 (stereo not given in full),-3.9%
Cc1cccc(CNc2nc(-c3ccc(C(=O)N(C)C)cc3)nc3ccccc23)c1,25.1µM*
COc1ccc(CNC(=O)CCSCc2cccc(Cl)c2)c(OC)c1,28.2µM*

# Given as labelled records: four of the compounds above.
O=C(Nc1ccncc1)c1cn(-c2ccccc2)nc1-c1cccs1
  HPGD inh: ?

Cc1ccccc1-n1ncc2c([N+](=O)[O-])cc([N+](=O)[O-])cc21
  HPGD inh: -10.9%

COc1nc(N(C#N)CC(N)=O)nc(N2CCCC2)n1
  HPGD inh: -3.6%

O=C1CCCCC1C(Nc1ccc(Cl)cc1)c1ccccc1 (stereo not given)
  HPGD inh: ?

# Continued.
SMILES,HPGD inh
Cc1cccc(C)c1OCC(=O)NNC(=O)Nc1ccc(Cl)cc1,-6.5%
Cc1noc(C)c1C(=O)N1CCC2(CC1)CCN(c1cccc(-c3ccccc3)c1)CC2,-17.8%
O=C(Oc1ccc(-c2nnco2)cc1)N1CCOCC1,-18.1%
CC(C)(C)NC(=O)CSc1nnnn1C(C)(C)C,-7.9%
COc1ccc(Cl)cc1N1CCN(CCNC(=O)Nc2ccccc2C)CC1,-11.8%
CCCCN(CCCNC(=O)C1CCCN(S(=O)(=O)CC)C1)Cc1ccccc1 (stereo not given),-9.5%
CCCCCn1c(=O)c(C(=O)OCC)c(O)c2ccccc21,-11.5%
O=C(CSc1nnc(SCc2cccc3ccccc23)s1)N/N=C/c1c[nH]c2ccccc12,-9.4%
COc1ccc(OCC(=O)Nc2cccc(C(=O)Nc3ccccc3C(=O)O)c2)cc1,?
Cc1cccc(NC(=O)CSc2nc(COc3ccccc3)nc3ccccc23)c1C,-6.6%
CCOc1ccc(C2C(C(=O)OC)=CN(CCOC)C=C2C(=O)OC)cc1,?
CC(C)Oc1ccc(N2CC(C(=O)OCC(=O)NCc3ccccc3)CC2=O)cc1 (stereo not given),-3.3%
CC(=O)c1ccc(OCC(O)CN2CCCC(C)C2)cc1 (stereo not given),-7.6%
Cc1nc2sc3c(NCc4ccco4)ncnc3c2c2c1COC(C)(C)C2,-12.9%
Cc1cc(C)c2c(CN3CCN(CCO)CC3)cc(=O)oc2c1,-2.9%
COc1ccccc1N1CCN(/N=C/c2cc(OC)c(O)c(OC)c2)CC1,?
Nc1nnc(SCc2coc(-c3ccc(Cl)cc3)n2)s1,-6.5%
CCOCCCn1cnc2c(c1=O)c1nc3ccccc3nc1n2-c1ccccc1,?
Cc1ccc2c(c1)OC(=O)CC2c1ccccc1 (stereo not given),-14.6%
O=C(NCc1cccs1)C1CCC(CNS(=O)(=O)c2cccc3nsnc23)CC1 (stereo not given),-23.9%
CCOC(=O)Cc1c(C)nc2c(-c3ccccc3)c(C)[nH]n2c1=O,?
C=CCC(Nc1ccccc1)C12C=CC(O1)C(C(=O)OC)=C2C(=O)OC (stereo not given),-7.4%
CCOc1ccc(C(=O)NCc2cccs2)cc1,-19.0%
Cc1nc2c(nnn2Cc2ccccc2)c(=O)n1-c1ccccc1,-25.9%
COc1ccc(-c2ccc(/C=C3/C(=N)N4C(C)=CSC4=NC3=O)o2)c([N+](=O)[O-])c1,-24.1%

# Individual results from the results shown.
# Value of CCOc1ccc(C(=O)NCc2cccs2)cc1 under HPGD inh: -19.0%
# Value of Cc1cc(C)c2c(CN3CCN(CCO)CC3)cc(=O)oc2c1 under HPGD inh: -2.9%
# Value of Cc1noc(C)c1C(=O)N1CCC2(CC1)CCN(c1cccc(-c3ccccc3)c1)CC2 under HPGD inh: -17.8%
# Value of Nc1nnc(SCc2coc(-c3ccc(Cl)cc3)n2)s1 under HPGD inh: -6.5%
# Value of CCCCCn1c(=O)c(C(=O)OCC)c(O)c2ccccc21 under HPGD inh: -11.5%

# The listing continues.
SMILES,HPGD inh
CCOC(=O)c1cccc(NC(=O)CCc2c(C)nc3ncnn3c2C)c1,-6.3%
CCOC(=O)C(C)NC(=O)C(NC(=O)C1CCC(CC)CC1)C(C)C (stereo not given),-4.8%
CO/N=C1\CN(c2nc3c(cc2F)c(=O)c(C(=O)O)cn3C2CC2)CC1CN (stereo not given),-25.0%
Cc1ccccc1NC(=S)NC1(C)CCS(=O)(=O)C1 (stereo not given),-6.7%
CC1CCc2cc(F)ccc2N1C(=O)CSc1nnc2c(n1)[nH]c1ccccc12 (stereo not given),-27.9%
COc1cc(OC)nc(Oc2ccccc2C(=O)Oc2ccc(Cl)cc2)n1,-14.5%
O=S(=O)(c1ccc(OCC(O)CN2CCC(Cc3ccccc3)CC2)cc1)N1CCOCC1 (stereo not given),-1.3%
COc1ccc(Cl)cc1N1CC(c2nc3ccccc3[nH]2)CC1=O (stereo not given),-11.8%
COC(=O)C(CCSC)NC(=O)c1cc2c(n(-c3ccccc3)c1=O)CC(C)(C)CC2=O (stereo not given),-7.5%
CCOC(=O)c1ccc(N2CCN(c3ccccc3F)CC2)c(NC(=O)Nc2cccc(OC)c2)c1,?
CC(C)OCCCNC(=O)c1ccncc1,-14.3%
Fc1cccc(/C=N/N=C/c2cccc(F)c2)c1,-4.1%
CC/C(=N\O)c1c(O)c2c(n(-c3ccccc3)c1=O)CCCC2,-0.6%
Clc1ccc(OCCCc2nc(-c3ccncc3)no2)c(Cl)c1,28.2µM*
COc1ccc(Br)cc1C1CC(=O)N2CN(Cc3ccccc3)CSC2=C1C#N (stereo not given),7.08µM*
O=C(O/N=C(\c1ccccc1)c1ccccn1)c1cccc2ccccc12,?
Cc1ccc(NC(CNS(=O)(=O)c2ccc(Cl)cc2)c2ccccc2)cc1 (stereo not given),-16.3%
CCOC(=O)C(C(=O)Nc1nc2ccccc2s1)C1CCCCC1 (stereo not given),-17.1%
O=C(CN1C(=O)c2ccccc2C1=O)N1CCN(c2nnc(-c3ccccc3)c3ccccc23)CC1,-15.8%
O=C(c1ccco1)N1CCN(c2ncnc3c(-c4ccccc4)nsc23)CC1,-27.7%
C1CCC2OC2C1 (stereo not given),-8.2%
Cc1ccc(C(C)C)c(OCC(=O)Nc2ccc3c(c2)nc(CN2CCCC2)n3C)c1,?
CCN(CC)c1ccc2cc(C(=O)Nc3ccc(-n4cnnn4)c(OC)c3)c(=O)oc2c1,-11.6%
COC(=O)c1[nH]c2ccc(C)cc2c1NC(=O)C(C)N1CCN(C2CCCCC2)CC1 (stereo not given),-25.4%
COc1ccc(-c2csc(NC(=O)CSc3ccc(Br)cc3)n2)c(OC)c1,-9.8%

# HPGD inh: entries above that show a hit
SMILES,HPGD inh
O=C1CCC(=O)N1OCCCOc1ccc(Br)cc1Cl,17.8µM*
Cc1cccc(CNc2nc(-c3ccc(C(=O)N(C)C)cc3)nc3ccccc23)c1,25.1µM*
COc1ccc(CNC(=O)CCSCc2cccc(Cl)c2)c(OC)c1,28.2µM*
Clc1ccc(OCCCc2nc(-c3ccncc3)no2)c(Cl)c1,28.2µM*
COc1ccc(Br)cc1C1CC(=O)N2CN(Cc3ccccc3)CSC2=C1C#N (stereo not given),7.08µM*

# More records follow:
SMILES,HPGD inh
CC(=O)Nc1ccc(S(=O)(=O)N2CCCN(S(=O)(=O)c3ccc(NC(C)=O)cc3)CC2)cc1,0.5%
COc1nc(OC)nc(Oc2ccc(Cl)cc2[N+](=O)[O-])n1,-3.1%
CCC1=NC(c2ccc(OC)cc2)N(O)C1(C)C (stereo not given),-4.9%
O=C(c1ccc2c(c1)OCO2)N1CCN(c2ccccn2)CC1,-9.3%
C=CCn1c(SCC(=O)NC2CCCc3ccccc32)nnc1-c1ccncc1 (stereo not given),-11.9%
Cc1ccc(NC(=O)CCC(=O)OCC(=O)c2ccc(Oc3ccc([N+](=O)[O-])cc3)cc2)c(C)c1,-5.4%
COc1cc(C(=O)NCCC(=O)NCCCN2CCCCC2C)cc(OC)c1OC (stereo not given),-13.6%
CCC(=O)Nc1nc(=S)ss1,10µM*
O=C(NCCCN1CCN(Cc2ccccc2)CC1)c1nnc(Cc2c(F)cccc2Cl)o1,-7.2%
O=C(COc1ccccc1F)NNC(=O)c1ccc(N2CCCCC2)c([N+](=O)[O-])c1,-21.3%
C=CCOC[C@@H]1CN2[C@H](c3ccc(Br)cc3)[C@@H](C)CC[C@H]2C(=O)O1,3.0%
CCN(CC)C(=S)SCC(=O)c1ccc(F)cc1,-8.2%
O=C(CN(Cc1cccs1)C(=O)CSc1nnc(COc2ccccc2)o1)NC1CCCCC1,-14.8%
COC(=O)C1=CNC=C(C(=O)OC)C1c1ccc(Cl)cc1,?
CCOC(=O)c1ccc(N2C(=O)c3n[nH]c(C)c3C2c2ccc(OC)cc2OC)cc1 (stereo not given),-29.5%
CCC(C)Cn1c(S(=O)(=O)O)nc2ccccc21 (stereo not given),-6.3%
CCc1cccc(CC)c1NC(=O)COC(=O)CC1c2ccccc2CCN1S(=O)(=O)c1ccccc1 (stereo not given),-12.0%
CCCC(=O)C1=C(SCC)CC(C)(C)C(C(=O)OC)C1=O (stereo not given),-14.2%
Cc1ccccc1-c1nn2c(-c3ccccc3)nnc2s1,28.2µM*
CCCNC(=O)c1ccccc1NC(=O)c1ccccc1N(C)S(C)(=O)=O,-9.6%
Cc1cccc(N2CCN(C(=O)c3cccc(S(=O)(=O)N4CCc5ccccc5C4)c3)CC2C)c1 (stereo not given),-3.9%
CCC(C(=O)NCc1ccco1)N(C(=O)CNS(=O)(=O)c1ccccc1)C1CCCCC1 (stereo not given),0.8%
CCOC(=O)c1c(NC(=O)CN2C(=O)NC(C)(c3ccccc3)C2=O)sc(C)c1C (stereo not given),-12.7%
CCCOc1ccc(-c2nc(=S)[nH][nH]2)cc1,12.6µM*

# The list is partial; the hit share may differ from the screen's.
